Vaccinia Venus = qHTS for Stage-Specific Inhibitors of Vaccinia Orthopoxvirus: Venus Reporter Primary qHTS; AID 720580, 2013; 330,000 compounds, 0.46% hits; Potency, µM (top dose mostly 36.5 µM), for inactives: at the highest dose activity change, negative = inhibition, actives largely listed as inhibitors; Vaccinia virus Venus reporter expression, fluorescence; active means well fitted inhibition curve with a large enough effect; inconclusive means small, poorly fitted or top-dose-only effect; inactive means no such curve, though single readings can be large or run the other way; tested in A549 cells; also: nearly all actives have a fitted effect of over 30% in size; inactives centre near -10
Vaccinia mCherry = qHTS for Stage-Specific Inhibitors of Vaccinia Orthopoxvirus: mCherry Reporter Primary qHTS. Vaccinia virus mCherry reporter infection, fluorescence; about a quarter of the inactives have no number. Potency, µM (doses to about 36.5 µM), without a hit: top-dose activity change, negative = inhibition, actives largely listed as inhibitors. 310,000 compounds, 0.63% hits. AID 720579, 2013; active = well fitted inhibition curve with a large enough effect; inconclusive = small, poorly fitted or top-dose-only effect; inactive = no such curve, though single readings can be large or run the other way; tested in A549 cells; also: nearly all actives have a fitted effect of over 35% in size; inactives centre near -10
Numbers without * were called inactive; i = inactive; ? = inconclusive; . = no result given; & = joins results of further samples; [ ] = another dose, or the depositor's remark. % is scaled to controls: 0 for no effect and ±100 for the full control effect; potency is read from the fitted curve at half-maximal effect. This is a random part of the collection; any-hit rate near 0.87%.

SMILES	Vaccinia Venus	Vaccinia mCherry
COc1ccc(C(CCN)c2ccc3c(c2)OCO3)cc1 (stereo not given)	2%	i
COc1ccc(CN2C(=O)c3cccnc3C2=O)cc1S(=O)(=O)N1CCOc2ccc(Cl)cc21	-3%[7.34 µM]	i[7.34 µM]
Cc1cc2nc(-c3ccccc3)cc(=O)n2[nH]1	-10%	i
Cc1sc(NC(=O)CN2CCCC2)nc1-c1ccc2c(c1)CCN2C(=O)c1ccc(F)cc1	-7%	?
CCCCc1c(-c2ccccc2OC)ncn1CCc1ccccc1	?	i
COC(=O)c1ccc(NC(=O)CCCC(=O)OCC(=O)c2ccc(Cl)cc2)cc1	-3%	-9%
COc1ccc(CCNS(=O)(=O)c2ccc(Br)cc2)cc1	0%	-25%
COc1ccc(CCNC(=O)c2cccs2)cc1	-15%	-7%
Cc1sc2nc(C3CC3)nc(SCC(=O)N3CC(=O)Nc4ccccc43)c2c1C	-26%	-28%
Cc1cc(C=O)c(C)n1CC1CCCO1 (stereo not given)	3%	-11%
COc1ccc(-c2noc(CCCC(=O)NC3CCCCC3)n2)cc1	7%	-18%
O=C(CSc1nnc(NC(=O)C2CC2)s1)Nc1cccc(F)c1	0%	-10%
NC(=O)C1(N2CCCCC2)CCN(C(=O)c2cccs2)CC1	3%	i
Cc1ccc(C)c(OCC(O)CN2CCC(C)CC2)c1C (stereo not given)	-9%	-14%
Cc1nn(C)c2c1c(C(F)(F)F)cc(=O)n2Cc1ccc(Br)cc1F	6%	-7%
CC(=O)c1cc(CN2CCC(N3CCC(C(=O)N4CCCC4)CC3)CC2)cs1	0%	6%
Cc1nnc(NC(=O)c2ccc3ccccc3c2)o1	-16%	-13%
CC(=O)c1ccc(NC(=O)COC(=O)Cn2cnc3ccccc32)cc1	-5%	-7%
Cc1ccc(C(=O)Oc2oc(-c3ccccc3)nc2C=Nc2ccc(N(C)C)cc2)cc1	-5%	i
O=C(Nc1cc(Cl)cc(Cl)c1)C1CCCC1	-16%	-24%
CC(C)(C)c1ccc(OCC(=O)N/N=C/c2ccc(N3CCOCC3)cc2)cc1	-23%	-4%
Cc1[nH]n(-c2ccccc2)c(=S)c1C=NCCCN=Cc1c(C)[nH]n(-c2ccccc2)c1=S	-26%	-15%
CCc1ccc(N(C(=O)c2snc(C(N)=O)c2N)C(C(=O)NC2CCCC2)c2ccncc2)cc1 (stereo not given)	-9%	-11%
C#CCOCCOCCOCCNc1nc(N2CCN(C(=O)[C@H](CCCCN)n3cc([C@@H](N)C(C)CC)nn3)CC2)nc(N2CCN(C(=O)[C@H](Cc3ccc(O)cc3)n3cc([C@@H](N)CC(C)C)nn3)CC2)n1 (stereo not given in full)	-10%	-9%
OC(CN1CCN(c2ccc(C(F)(F)F)cn2)CC1)c1ccccc1 (stereo not given)	-24%	-13%

Compound profiles, from the list above:
Shown for O=C(CSc1nnc(NC(=O)C2CC2)s1)Nc1cccc(F)c1 : Vaccinia Venus = 0%; Vaccinia mCherry = -10%
Shown for CCc1ccc(N(C(=O)c2snc(C(N)=O)c2N)C(C(=O)NC2CCCC2)c2ccncc2)cc1 (stereo not given) : Vaccinia Venus = -9%; Vaccinia mCherry = -11%
Shown for Cc1cc(C=O)c(C)n1CC1CCCO1 (stereo not given) : Vaccinia Venus = 3%; Vaccinia mCherry = -11%

New compounds follow.
SMILES	Vaccinia Venus	Vaccinia mCherry
O=C(NCCS(=O)(=O)N1CCN(c2cccc(Cl)c2)CC1)C1CCCC1	-15%	-9%
CNC(=S)NNC(=O)c1cc(-c2cccnc2)nc2ccccc12	-9%	-12%
CCc1ccc(CNC(=O)COc2cc(=O)n(CC)c3ccccc23)cc1	-22%	?
CCN1CCc2c(sc(NC(=S)NC(=O)c3ccccc3)c2C#N)C1	-16%	-18%
Cc1ccc(N2CCN(S(=O)(=O)c3nnc(NC(=O)c4ccc(C(C)C)cc4)s3)CC2)cc1	?	?
CCOC(=O)c1nn(-c2ccccc2)c2nnc(Cc3ccc(C)cc3)c(=O)n12	-4%	-9%
Cc1ccc(S(=O)(=O)N2CCCC2C(=O)OCc2nc3ccccc3s2)cc1 (stereo not given)	-26%	.
Cc1ccc(NC(=O)Cn2c(SCc3ccc(F)cc3)nc3cccnc32)cc1F	-14%	-14%
CCOC(=O)C1(C)CCCN(C(=O)c2ccccc2C(F)(F)F)C1 (stereo not given)	-7%	i
CC(=O)N(c1ccc2oc(=O)sc2c1)S(=O)(=O)c1ccc(C(=O)O)cc1	0%	-1%
Cc1ccc(NC(=S)N2CCC(N(C)CC3CCCO3)CC2)cc1C (stereo not given)	-1%	-12%
COc1ccc(C(=O)Nc2nnc([C@@H]3C[C@H](O)[C@@H](CO)O3)s2)cc1	-1%	8%
CCOc1ccc(NC(=O)COc2ccc(S(=O)(=O)N3CCOCC3)cc2)cc1	87%[activator]	16%
Cc1cc(NC(=O)c2cc(-c3ccncc3)nc3c(C)cccc23)no1	?	?
CCOC(=O)C1=C(CNCCc2ccc(Cl)cc2)NC(=O)NC1c1cccc([N+](=O)[O-])c1 (stereo not given)	?	?
CC1CCCC(C)N1/N=C/c1cccc([N+](=O)[O-])c1 (stereo not given)	-2%	i
COc1ccc(OCC(=O)OC(C)CN2CCOCC2)cc1 (stereo not given)	-3%	i
COc1ccc(CNC(=O)CN(C(=O)c2csnn2)c2ccccc2F)cc1	-1%	i
O=C(COC(=O)CCCSc1nc2ccccc2[nH]1)Nc1ccc(Oc2ccccc2)cc1	-11%	-19%
COc1cc(/C=C(/C#N)c2ccccc2F)ccc1OCc1ccccc1	-16%	-23%
Cc1ccc(-c2ccc(=O)n(CC(=O)NCc3ccc(F)cc3)n2)cc1	-15%&-4%	-21%&-8%
OCC(O)C1OC(Oc2ccccc2)C(O)C(O)C1O (stereo not given)	1%	-2%
Cc1cnc(C2OCCO2)c2cccc(N)c12	-5%	?
Cc1ccc(Cl)cc1N1CCN(C(=O)c2cn(C)c(=O)c3c2c2ccccc2n3C)CC1	-10%	i
COC(=O)c1ccccc1NC(=O)CSc1cc(-c2ccccc2)nc(C)n1	-3%	-11%

Among those listed so far, five have a thiophene ring, fused or not:
SMILES	Vaccinia Venus	Vaccinia mCherry
COc1ccc(CCNC(=O)c2cccs2)cc1	-15%	-7%
Cc1sc2nc(C3CC3)nc(SCC(=O)N3CC(=O)Nc4ccccc43)c2c1C	-26%	-28%
NC(=O)C1(N2CCCCC2)CCN(C(=O)c2cccs2)CC1	3%	i
CC(=O)c1cc(CN2CCC(N3CCC(C(=O)N4CCCC4)CC3)CC2)cs1	0%	6%
CCN1CCc2c(sc(NC(=S)NC(=O)c3ccccc3)c2C#N)C1	-16%	-18%

New compounds follow.
SMILES	Vaccinia Venus	Vaccinia mCherry
COc1ccc(-c2cc(NC=O)c3ncc(-c4cccc(C(=O)N(C)C)c4)n3c2)c(OC)c1	?	-28%
COc1ccc(Cl)c2sc(N3CCN(C(=O)c4ccco4)CC3)nc12	?	-12%
CS(=O)(=O)CCN1CC2CCCC(C2)C1	-17%	-22%
O=C(CSc1nc2ccncc2[nH]1)Nc1ccccc1C(F)(F)F	-23%&-22%	-16%
O=C(Nc1ccccc1Sc1ccccc1)c1cnn2c1NC(=C1CC1)C=C2C(F)F	-20%	-14%
CCCCNc1ccc(C(CC(N)=O)NC(=O)Cc2ccc(Br)cc2)cc1[N+](=O)[O-] (stereo not given)	-10%	i
Cc1ccc(NC(=O)CN(C)C(=O)c2ccccc2Sc2ccccc2C#N)cc1	-7%	-30%
Cc1cc(C)c(C#N)c(N2CCN(c3ccc(F)cc3)CC2)n1	-5%	i
COc1ccc([C@H]2C=C(C(=O)O)O[C@@H](OCCCCO)C2)cc1	-13%	-18%
COc1ccc(Cn2c(CCC(=O)NCCC(C)C)nc3ncccc3c2=O)cc1	-10%	-16%
CC1CCN(S(=O)(=O)c2cc(C(=O)N3CCN(c4ccccc4F)CC3)n(C)c2)CC1	-19%	-24%
Cc1ccc(S(=O)(=O)N(CC(=O)N/N=C/c2cccc(Cl)c2)c2cccc3cccnc23)cc1	?	.
O=C(C1CC(=O)N(C2CCCCC2)C1)N1CCN(c2ccccc2)CC1 (stereo not given)	-10%	-1%
CN(C)c1ccc(-c2nn3c(-c4ccc(Cl)cc4)nnc3s2)cc1	-8%	-9%
C[C@H]1CN([C@@H](C)CO)C(=O)Cc2cc(NC(=O)CCC(F)(F)F)ccc2O[C@H]1CN(C)S(=O)(=O)c1ccc(F)cc1	?	-8%
Cn1c(=O)n(C)c2cc(NC(=O)C(F)(F)F)ccc21	?	.
COc1cc(NC(=O)C2CC(c3c(F)cccc3Cl)=NO2)c(OC)cc1Cl (stereo not given)	-14%	-15%
CC[n+]1oc(-c2ccccc2)cc1C	-11%	i
CC(C)C[C@H]1CN(CCCC[C@@H]2CNC(=O)C(=O)N2CCc2ccccc2)C(=O)C(=O)N1Cc1ccccc1	7%	6%
CCOC(=O)C(C)c1nc2ccccc2[nH]c1=O (stereo not given)	1%	-10%
COC(=O)c1cc(=O)n(CCc2ccccc2)c(=Nc2ccc(F)cc2)s1	-5%	11%
c1ccn2cc(-c3ccc4c(c3)OCCO4)nc2c1	-15%	-13%
COc1ccccc1-c1nnc(NC(=O)c2ccccc2F)o1	-7%	?
CCCC1(CC(C)C)C(=O)NC(=S)NC1=O	-1%	-8%
COc1ccc(S(=O)(=O)N(CCO)c2ccccc2CN(C)C/C=C/c2ccc(Cl)cc2)cc1	-12%	-11%

The list continues:
SMILES	Vaccinia Venus	Vaccinia mCherry
CCCCN1C(=O)C2ON(c3ccccc3C)C(c3ccco3)C2C1=O (stereo not given)	-19%	-10%
CC(C)Cn1c(=S)[nH]c2cc(Cl)ccc21	-15%	-20%
O=C(CCN1C(=O)/C(=C\c2ccccc2F)SC1=S)N1CCOCC1	13µM*	?
COc1ccc(C2=NOC(C(=O)Nc3ccc4c(c3)OCCO4)C2)cc1OC (stereo not given)	-13%	-15%
O/N=C(/CCc1ccccc1)C1(O)CCCCC1	-16%	-18%
CN1C(=O)C(C)(C)c2cc(S(=O)(=O)N3CCCC(C(=O)NCc4ccc(F)cc4)C3)ccc21 (stereo not given)	-21%	i
Cc1cc(Cl)ccc1OC(C)C(=O)NC(C)C1CCCO1 (stereo not given)	-5%	-16%
Cc1cccn2c(=O)c3cc(C(=O)NC(C)c4ccccc4)c(=N)n(CCCn4ccnc4)c3nc12 (stereo not given)	-18%	-12%
CCS(=O)(=O)N1Cc2ccccc2CC1C(=O)Nc1ccc(OC)c(OC)c1 (stereo not given)	1%	i
CC(=O)N1CCN(C(=O)c2cc(=O)c3ccccc3o2)CC1	12%	6%
CC(C)(C)C(=O)c1c(N)[nH]c(C(=O)c2ccccc2)c1-c1cc2ccccc2nc1Cl	3%	1%
CCC(C)N(C(=O)c1csnn1)C(C(=O)NC(C)(C)C)c1ccccc1 (stereo not given)	-8%	-14%
COc1ccc(OCc2cc(C(=O)NC3Cc4ccccc4C3)no2)c(Cl)c1	-21%	?
COC(=O)c1ccccc1NC(=O)c1cc2ncc(Br)cn2n1	?	.
O=C(O)C1Nc2ccccc2C2C=CCC12 (stereo not given)	13%	-15%
COc1ccccc1NC(=O)c1ccc(COc2ccccc2OC)cc1	-10%	-14%
COC(=O)c1cc(Br)c(=O)n(CCc2ccccc2)c1	-6%	.
CCn1c(CNC(=O)c2cccc(C)c2)nnc1SCC(=O)NC1CCCCC1C (stereo not given)	-10%	-17%
Cc1cc(C(=O)NC2CC(C)(C)Cc3c2cnn3-c2ccccc2C)c(C)o1 (stereo not given)	-10%	-4%
Cc1nc2ccccc2nc1N1CCCCC1	2%	-8%
CC(C)c1ccc(NC(=O)[C@@H]2CCC(=O)N2C2OC(=O)c3ccccc32)cc1 (stereo not given in full)	2%	-7%
CCOc1ccc(C(=O)CN2C(=O)NC3(CCCc4ccccc43)C2=O)cc1 (stereo not given)	-23%	-10%
COc1cccc(/C=N/NC(=O)C(=O)NCc2cccnc2)c1	-8%	-10%
Cc1cccc(C(=O)N2CCCCCC2)c1	-7%	-17%
Cc1cccc(NC(=O)CN(C)S(=O)(=O)c2ccc3c(c2)n(C)c(=O)c(=O)n3C)c1C	-4%	-6%
CN(C)N1C(N)=C(C#N)C(c2cccc3ccccc23)C2=C1CC(c1ccccc1)CC2=O (stereo not given)	?	?
OCC[C@H]1C[C@@H](O)[C@H](O)[C@]2(CCCCO2)O1	11%	i

Screening data as filed in PubChem BioAssay.
